MLL AF4-AF9 inh: inhibitors of AF4 peptide binding to AF9, primary screen, biochemical, AlphaScreen, biotin-AF4 peptide, FLAG-AF9, single point; Protein AF-9 (Homo sapiens), P42568; inhibition, % at 10 µM; 350,000 compounds, 0.47% hits; AID 651704, 2012;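 active means every replicate reaching a set inhibition limit, whatever the replicate mean, cut at about 25% in these data; inconclusive means mean inhibition reaches that limit but some replicates miss it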;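 further: 0% = plate neutral control median and 100% = total signal loss; the record names both 10 and 1 µM as test concentration; the first replicate is given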
Target sequence (P42568 whole entry, looked up): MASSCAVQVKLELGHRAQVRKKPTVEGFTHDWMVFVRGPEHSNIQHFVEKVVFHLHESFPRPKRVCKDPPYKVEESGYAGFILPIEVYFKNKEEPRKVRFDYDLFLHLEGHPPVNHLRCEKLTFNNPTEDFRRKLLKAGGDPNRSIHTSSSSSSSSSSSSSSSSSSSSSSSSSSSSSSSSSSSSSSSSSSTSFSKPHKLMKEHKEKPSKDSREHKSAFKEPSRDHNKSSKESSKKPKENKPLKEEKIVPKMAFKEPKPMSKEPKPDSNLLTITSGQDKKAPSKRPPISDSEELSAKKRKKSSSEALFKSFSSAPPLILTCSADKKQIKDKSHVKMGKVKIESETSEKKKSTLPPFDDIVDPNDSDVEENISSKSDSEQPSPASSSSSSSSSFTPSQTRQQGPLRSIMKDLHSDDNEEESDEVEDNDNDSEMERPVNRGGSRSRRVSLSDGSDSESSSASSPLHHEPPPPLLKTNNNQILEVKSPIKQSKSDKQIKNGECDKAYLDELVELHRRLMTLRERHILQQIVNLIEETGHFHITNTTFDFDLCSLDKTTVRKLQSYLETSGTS
FGF22 binding: binders of human FGF22 protein, primary screen, FGF22 synaptogenesis inhibitor project, biophysical, thermal shift, single point; calls only at 9.99 µM; recombinant FGF22 thermal shift, SYPRO orange fluorescence; percent of sucrose octasulfate shift, DMSO zero; AID 651658, 2012; 340,000 compounds, 1.5% hits; Fibroblast growth factor 22 (Homo sapiens), Q9HCT0;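 active means melting point raised past a set limit in the mean and every replicate; inconclusive means no clear call; three in four hits are not shown here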
Target sequence (Q9HCT0 whole entry, looked up): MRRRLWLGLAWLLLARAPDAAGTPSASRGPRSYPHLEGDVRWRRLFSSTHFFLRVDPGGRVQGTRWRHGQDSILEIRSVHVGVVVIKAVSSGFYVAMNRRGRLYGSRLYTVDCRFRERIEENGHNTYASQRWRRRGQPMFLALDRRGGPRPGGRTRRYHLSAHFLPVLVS
Vif A3G: inhibitors of Vif binding to APOBEC3G peptide, primary screen, biochemical, TR-FRET, GST-Vif 1-94, biotin-A3G peptide, dose response retest (AID 1117319). Virion infectivity factor (Human immunodeficiency virus type 1 group M subtype B (isolate …. 260,000 compounds, 0.57% hits. inhibition, %, or IC50 in µM where a hit was titrated. TR-FRET GST-Vif / biotin-A3G peptide binding; higher % means a stronger effect; test concentration not given here; strong numbers were not always called active;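 active means above the screen mean plus three standard deviations and confirmed in dose response; inconclusive means results disagree or hit not tested in dose response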;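 further: Vif residues 1-94 fused to GST binding biotinylated APOBEC3G peptide 110-148; 0% = full assay without inhibitor and 100% = GST in place of GST-Vif; retest series ran down from 100 µM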
Ecoli growth: E. coli growth inhibition, primary screen, OD600; Escherichia coli growth, 23 h; stronger effect = lower value; OD600 absorbance (test concentration not listed); 330,000 compounds, 0.21% hits;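 active means OD600 absorbance below the run mean of sample wells minus 3.6 SD, in any replicate, cut at about 0.56 in these data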;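 further: stock transfer was 300 nL into about 60 µL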
ALR inh: inhibitors of human ALR sulfhydryl oxidase, primary screen, biochemical, H2O2 detection, HRP-luminol luminescence, single point; purified ALR, DTT oxidation; inhibition, % (no concentration beside the values); 290,000 compounds, 3.8% hits; AID 485317, 2010;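 active means mean and each replicate at 75% or more; inconclusive means only one of the two met; inactive means neither met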;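 further: stock transfer was 7.5 nL into about 7.5 µL; 0% = neutral wells and 100% = wells with inactivated enzyme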
Target sequence (P55789 whole entry, looked up): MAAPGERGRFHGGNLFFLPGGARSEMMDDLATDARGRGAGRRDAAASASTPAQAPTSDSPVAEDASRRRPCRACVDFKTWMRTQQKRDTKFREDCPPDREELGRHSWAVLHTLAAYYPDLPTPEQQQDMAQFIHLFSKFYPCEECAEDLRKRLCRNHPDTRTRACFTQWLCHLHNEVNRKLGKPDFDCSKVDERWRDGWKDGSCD
rRNA inh HTS: reduced GFP signal of wild-type E. coli, primary screen, bacterial rRNA inhibitor project, GFP/RFP fluorescence, OD600, single point | GFP signal change (wild-type ribosome), % (test concentration not listed) | 350,000 compounds, 1.6% hits | E. coli WT GFP vs humanized-ribosome RFP mutants, 24 h; stronger effect = lower value; DMSO median 0, no signal -100 | AID 720706, 2013;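 active means significant combined selectivity score with lowered wild-type GFP, culture density cut under 30%, mutant RFP and density less affected; inactive means any of these conditions unmet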; further: one replicate is shown; some compounds called inactive have numbers as strong as hits
HNF4A DNA FP: change in binding of human HNF4A to DNA, primary screen, biochemical, fluorescence polarization, FITC-DNA | 1 h | 360,000 compounds, 0.3% hits | AID 1224865, 2016 | activity change, % at 10 µM; in the data active means activity change above about 30%, passing the limit was not always enough;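 further: controls were the assay level and a saturating level of protein; the project sought stronger binding though the title names inhibitors; some compounds called inactive have numbers as strong as hits; positive values seem to mean higher polarization but the record does not say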
rRNA inh HTS OD600: recorded beside rRNA inh HTS, whose call it bears; OD600 change, %; measured here: OD600 growth;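 optical density of the mix in the first replicate; 0 = DMSO median and -100 = no signal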
rRNA inh HTS RFP: further read-out of rRNA inh HTS, marked with its call; RFP signal change, %; measured here: RFP humanized mutant strains;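 first replicate; 0 = DMSO median and -100 = no signal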
An asterisk follows results filed as active; i = inactive; ? = inconclusive; / = not tested or not shown. The list is partial; the hit share may differ from the screen's.

SMILES | MLL AF4-AF9 inh | FGF22 binding | Vif A3G | Ecoli growth | ALR inh | rRNA inh HTS | rRNA inh HTS OD600 | rRNA inh HTS RFP | HNF4A DNA FP
COc1ccc(NC(=O)Nc2ccc3c(c2)C(=O)N([C@H](C)CO)C[C@@H](C)[C@@H](CN(C)S(=O)(=O)c2c(C)noc2C)OCCCC[C@H](C)O3)cc1 | 0.3 | i | / | / | / | 1 | -1 | 2.9 | /
CCc1nccn1CCC(=O)N1CCCC(N2CCN(c3ccccc3C)CC2)C1 (centres undefined) | 5.9 | i | / | 0.66 | 2 | 9 | 2 | 12 | -0.4
COc1ccc(NC(=O)N(C)C[C@@H]2Oc3ccc(NC(=O)CCN4CCOCC4)cc3CC(=O)N([C@H](C)CO)C[C@H]2C)cc1 | -0.7 | i | / | / | / | 5 | 13 | 2.2 | /
CC(C)Cc1nnc(NC(=O)c2ccncc2)s1 | / | / | 0% | 0.71 | 19 | / | / | / | -2.7
CCCS(=O)(=O)C(=C(Nc1ccccc1)Nc1ccccc1)S(=O)(=O)CCC | 4.4 | i | 2% | 0.66 | 4 | 13 | 8 | -1.0 | 4.5
COc1cc(/C=C2\Oc3ccc(C#Cc4ccc(O)cc4)cc3C2=O)cc(OC)c1 | / | / | / | / | 4 | 17 | 18 | 0.3 | 0.7
CCCC(=O)N(c1ccc(OCC)cc1)C1C=CS(=O)(=O)C1 (centres undefined) | / | / | 16% | 0.68 | -6 | / | / | / | 0.3
CCN(CC)CC(=O)NN(Cc1ccccc1)c1ccccc1 | -0.1 | i | / | 0.66 | 2 | -9 | 2 | -2.1 | -2.8
O=C(Nc1ccc2c(c1)OCO2)c1csc([C@H]2C[C@H](O)[C@@H](CO)O2)n1 | -1.9 | i | / | / | / | 9 | 8 | 8.2 | -2.9
CCOC(=O)COn1c(=O)c(-c2ccc(C)cc2)[n+]([O-])c2ccccc21 | 1.1 | i | 0% | 0.68 | 3 | 4 | 13 | 2.1 | 0.9
Cc1nn(C)c(C(=O)NC(=S)Nc2ccccc2Br)c1Cl | 0.0 | i | / | 0.73 | 3 | 0 | 1 | -1.7 | -1.4
COc1ccc(-c2ccnc(-c3ccc(O)cc3)n2)cc1 | -2.3 | i | -1% | 0.69 | 1 | 13 | 18 | -0.6 | -1.1
COCC(=O)N1CC2(C1)CN(C(=O)Cc1ccccc1)[C@@H](CO)c1c2c2ccc(OC)cc2n1C | -0.4 | i | / | / | / | -1 | -4 | -1.3 | /
OC(COc1ccc2c(c1)OCO2)CN1CCc2ccccc2C1 (centres undefined) | / | / | 22% | 0.68 | -13 | / | / | / | 0.7
CO[C@H]1CN(C)C(=O)c2ccc(NC(=O)NC(C)C)cc2OC[C@@H](C)N(Cc2ccccn2)C[C@H]1C | -3.7 | i | / | / | / | -1 | 3 | -0.7 | /
C=CCn1c(SCC(=O)Nc2ccccc2)nc2scc(-c3cccs3)c2c1=O | / | / | 1% | 0.76 | -8 | / | / | / | 1.1
CCc1ccc(NC(=O)CSc2nnc(Cc3cccn3C)n2-c2ccc(OC)cc2)cc1 | 7.8 | i | 13% | 0.72 | 16 | -13 | -12 | 1.7 | -1.0
Cc1cc(C)cc(NC(=O)Cn2cc(C=O)c3ccccc32)c1 | -0.2 | i | / | 0.64 | 17 | 2 | 6 | -7.6 | -0.5
CC1CCN(Cc2c(O)ccc3c2O/C(=C\c2ccco2)C3=O)CC1 | / | / | 3µM* | / | -4 | / | / | / | -20
C[C@H]1CN([C@@H](C)CO)C(=O)c2cccc(NS(=O)(=O)c3ccc(F)cc3)c2O[C@@H]1CN(C)C | -1.3 | i | / | / | / | -1 | -8 | -1.4 | /
Cc1cccc(NC(=O)CSCC(=O)Nc2ccccc2N2CCCC2)c1 | 6.9 | i | / | / | 99* | -35 | -30 | -9.6 | -1.4
COc1cccc(NC(=O)c2nc(S(C)(=O)=O)ncc2Cl)c1 | -14 | i | / | / | / | -2 | 1 | -1.6 | 0.1
O=C(Nc1cc(C(F)(F)F)ccc1Cl)c1ccc(NC(=O)C(F)(F)F)cc1 | / | / | -7% | 0.66 | -5 | / | / | / | -3.4
Cn1c(CCC(=O)OCC(=O)NCc2ccc3c(c2)OCO3)nc(=O)c2ccccc21 | -2.2 | i | / | 0.64 | -9 | 14 | 7 | 5.7 | -3.5
CCN(CC)CC(=O)NC1CCCc2c1cnn2-c1cc(F)cc(F)c1 (centres undefined) | -21 | i | -6% | / | / | 4 | 3 | -1.0 | -3.2
(further entries)
SMILES | MLL AF4-AF9 inh | FGF22 binding | Vif A3G | Ecoli growth | ALR inh | rRNA inh HTS | rRNA inh HTS OD600 | rRNA inh HTS RFP | HNF4A DNA FP
CCC(CC)C(=O)Nc1cccc(C(=O)Nc2ccc3c(c2)OCO3)c1 | 14 | i | 9% | 0.69 | / | -7 | -4 | -4.2 | -0.3
COCCN(C(=O)COC(=O)c1ccc(Cl)nc1)c1c(N)n(Cc2ccccc2)c(=O)[nH]c1=O | 0.7 | / | 9% | 0.69 | -1 | 13 | 7 | 1.0 | -0.3
COc1ccc(C(=O)COC(=O)c2cc(S(=O)(=O)NCc3ccccc3)ccc2O)cc1 | -0.3 | i | 1% | 0.7 | -9 | -20 | -16 | 13 | -0.3
O=C(O)CSc1nc(-c2ccc(Cl)cc2)nc2c1oc1ccccc12 | -91 | i | 28% | 0.65 | 52 | -48 | -45 | -9.2 | -2.3
COc1cc(NC(=O)c2cc(C)no2)cc(OC)c1OC | -2.5 | i | -2% | 0.66 | 3 | 6 | 7 | -0.2 | -1.7
COCC(=O)Nc1ccc2c(c1)[C@@H]1C[C@H](CC(=O)NCc3cccnc3)O[C@@H](CO)[C@@H]1O2 | -0.9 | i | / | / | / | -2 | 9 | -0.1 | /
CC(C)CCn1c(SCC#N)nc2c(sc3ccccc32)c1=O | / | / | 8% | 0.72 | -5 | / | / | / | -2.1
O=C(CN1CCC(NC(=O)C2CCCCC2)CC1)Nc1cccc(F)c1 | -11 | i | / | 0.7 | / | 6 | 9 | 1.2 | 3.5
O=C(NCc1ccco1)c1cnn2c(C(F)(F)F)cc(-c3ccco3)nc12 | / | / | ? | 0.67 | 7 | / | / | / | 2.8
O=C(Nc1ccc(N2CCCC2)c(Cl)c1)c1ccc(Br)o1 | / | / | 1% | 0.68 | -9 | -11 | -16 | 3.9 | 3.7
O=C(O)CN1C(=O)/C(=C\c2cccc(OCc3ccc(Cl)cc3Cl)c2)SC1=S | -3.1 | i | 7% | / | 99* | -41 | -35 | -4.8 | -16
CCC1=[N+](C)CCn2c(C)ccc21 | / | / | 1% | 0.76 | 0 | / | / | / | 0.9
CN(C)c1oc(-c2cccs2)nc1C#N | / | / | 1% | 0.69 | 3 | / | / | / | -3.0
O=C(Cc1ccccc1)N1C[C@@H]2[C@H](c3ccccc31)[C@@H](CO)N2C(=O)Nc1ccc(F)cc1 | 0.4 | i | / | / | / | -6 | -4 | 1.7 | /
C[C@@H]1CN([C@@H](C)CO)C(=O)c2cc(C#CC3CCCCC3)cnc2O[C@@H]1CN(C)S(C)(=O)=O | -1.6 | i | / | / | / | 2 | -9 | 2.2 | /
Cc1cc(=O)[nH]c(NCCO)n1 | -0.2 | / | -11% | / | 13 | 13 | 14 | -1.7 | -3.1
COC(=O)c1ccc2nc(-c3ccc(OC)c(OC)c3)c(Cc3ccccc3OC)n2c1 | -4.2 | i | / | / | / | 5 | 9 | -0.6 | 8.6
CCOc1ccc(N=C2NC(=O)S/C2=C\c2ccc(OC)cc2)cc1 | / | / | 1% | 0.69 | -3 | / | / | / | -4.6
CC1=C(C)C(c2ccccc2)NC(=S)N1 (centres undefined) | / | / | -3% | 0.69 | 3 | / | / | / | 2.3
Cc1ccc(CN2CC(C(=O)Nc3ccc(S(=O)(=O)N4CCCCC4)cc3)CC2=O)cc1 (centres undefined) | 1.2 | i | 10% | 0.7 | / | -30 | -48 | -5.2 | 0.6
CC(=O)NC1(C(F)(F)F)NC(=O)N(c2ccc(F)cc2)C1=O (centres undefined) | -1.2 | i | -8% | 0.63 | / | 6 | 17 | -0.5 | -2.3
Cc1ccsc1/C=N/NC(=O)c1ccc2ccccc2c1 | -1.9 | i | -1% | / | -17 | 0 | 6 | -0.1 | -3.3
COC(=O)c1ccc(S(=O)(=O)NCCSc2nnc3c4ccccc4n(C)c3n2)cc1 | 0.1 | i | 0% | 0.67 | / | / | / | / | 6.7
CCCCn1c(N)c(N(CCOC)C(=O)c2ccc(Br)s2)c(=O)[nH]c1=O | 0.5 | i | 0% | 0.66 | 0 | 4 | 12 | 2.7 | 0.1
Cc1cc(NC(=O)CSCC(=O)Nc2cc(Cl)ccc2N2CCN(C)CC2)no1 | 0.4 | i | / | 0.65 | -3 | 21 | 11 | 3.7 | 2.9
Following part:
SMILES | MLL AF4-AF9 inh | FGF22 binding | Vif A3G | Ecoli growth | ALR inh | rRNA inh HTS | rRNA inh HTS OD600 | rRNA inh HTS RFP | HNF4A DNA FP
Cc1cc(NC(=O)c2cccc3c2C(=O)N(C2CCCCC2)C3)ccc1Br | / | / | -3% | 0.64 | 2 | / | / | / | 1.6
CC(=O)N1[C@H](CO)[C@H](c2ccc(C3=CCCCC3)cc2)[C@@H]1CNC(=O)CN(C)C | 5.4 | i | / | / | / | 0 | 13 | -2.5 | /
C[C@H]1CN([C@@H](C)CO)C(=O)c2cc(NC(=O)Nc3ccccc3)ccc2O[C@@H]1CN(C)S(=O)(=O)c1ccc(F)cc1 | -8.6 | i | / | / | / | 3 | 16 | -0.2 | /
COC(=O)/C(C#N)=C/c1ccc(N2CCOCC2)c([N+](=O)[O-])c1 | 2.1 | i | -14% | 0.69 | / | -3 | 6 | -0.9 | 23
Cc1cc(C)c(C(=O)O)c(Cl)n1 | -0.2 | i | -3% | 0.72 | -1 | 16 | 10 | -0.4 | 0.6
COc1ccc(C(=O)NC2CC2)cc1OC1CCN(Cc2cc(C)c(C)cc2C)CC1 | 4.0 | i | / | 0.73 | 1 | 1 | -9 | 0.2 | 1.7
Cc1cc(SCC(=O)NC2CCCCC2)nc2ccccc12 | 4.0 | i | / | 0.67 | 2 | 3 | 0 | 0.8 | 1.6
CN1CCC(=C(c2ccc(Cl)cc2)c2ccccn2)CC1 | 0.9 | i | 21% | / | 3 | 10 | 7 | -0.5 | -1.9
CCOC(=O)/C(O)=C(\C#N)c1nc2ccccc2[nH]1 | 0.2 | i | / | 0.68 | -22 | 8 | 9 | -0.9 | 7.0
O=C(C[C@@H]1C[C@H]2c3cc(NS(=O)(=O)c4ccccc4)ccc3O[C@H]2[C@H](CO)O1)NCC(F)(F)F | 1.1 | i | / | / | / | -2 | 1 | 1.2 | /

Fetched by structure from above, 3 records:
SMILES | MLL AF4-AF9 inh | FGF22 binding | Vif A3G | Ecoli growth | ALR inh | rRNA inh HTS | rRNA inh HTS OD600 | rRNA inh HTS RFP | HNF4A DNA FP
CCOC(=O)/C(O)=C(\C#N)c1nc2ccccc2[nH]1 | 0.2 | i | / | 0.68 | -22 | 8 | 9 | -0.9 | 7.0
CC(=O)N1[C@H](CO)[C@H](c2ccc(C3=CCCCC3)cc2)[C@@H]1CNC(=O)CN(C)C | 5.4 | i | / | / | / | 0 | 13 | -2.5 | /
COC(=O)/C(C#N)=C/c1ccc(N2CCOCC2)c([N+](=O)[O-])c1 | 2.1 | i | -14% | 0.69 | / | -3 | 6 | -0.9 | 23

Assay outcomes as filed in PubChem BioAssay.
